Source: PubChem BioAssay
2A StopGo: lowers the luciferase signal of an FMDV 2A StopGo reporter; human cells with a luciferase reporter of 2A StopGo recoding; control for the full effect not named in the record; 410,000 tested, 1.2% active; AID 1159524; Potency, µM (titrated, usually from 57.9 µM), without a hit: top-dose signal change, negative = less light; active = well fitted falling curve with a large enough effect; inconclusive = small, poorly fitted or top-dose-only effect; inactive = no such curve, though single readings can be large or run the other way; tested in HEK293T cells; note: nearly all actives have a fitted effect of over 45% in size; luciferase light after 4 h
RE007 growth inh: less growth of the S. pombe RE007 Vpr strain; S. pombe RE007 Vpr strain, BacTiter-Glo ATP luminescence, 24 h; control for the full effect not named in the record; Potency, µM (series often up to 92.2 µM), for the others: at the top dose activity change, negative = less growth; 360,000 tested, 0.21% active; AID 651644; active = well fitted falling curve with a large enough effect; inconclusive = small, poorly fitted or top-dose-only effect; inactive = no such curve, though single readings can be large or run the other way;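 note: nearly all actives have a fitted effect of over 50% in size; the assay follows cell death caused by Vpr and the record does not say whether a fall means rescue or toxicity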
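Fission yeast RE007 carrying one integrated HIV-1 vpr copy, seeded at OD 0.01 in PMG+AL medium with 23 nL pinned compound. Grown 24 h at 30 degrees; viability read by BacTiter-Glo luminescence after 5 min.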
An asterisk follows results filed as active; ? = inconclusive; [ ] = remark or other dose. % is set by controls: 0 for no effect and ±100 for the full control effect; potency is the fitted concentration of half-maximal effect. Only part of the results is shown. The share of hits here may be higher or lower than overall.

no.	smiles	2A StopGo	RE007 growth inh
1	CSc1ccc(Cn2c(C)c(C(=O)NCc3ccc(F)cc3)sc2=O)cc1	?	3.4%[18.4 µM]
2	COC(=O)[C@@]12C[C@@H](CC(=O)N3CCSCC3)C(=O)N(Cc3cccc4ccccc34)C1=CCC(C)(C)C2	-6.4%	-1.8%
3	CC(C)C[C@H]1CNC(=S)N1CC1CCN(CC2CCC(C(C)(C)C)CC2)CC1 (stereo partly drawn)	-21.4%	-29.0%
4	CN(C)c1ccc(NC(=S)Nc2ccc3c(c2)c(=O)n(C)n3-c2ccc(C(C)(C)C)cc2)cc1	22.0%	-17.3%
5	O=C([C@H]1O[C@@H](n2ccc(=O)[nH]c2=O)[C@H](O)[C@@H]1O)N1CCN(Cc2ccccn2)CC1	0.0%	2.0%
6	CCOC(=O)[C@]12CCC=C1N(Cc1ccccc1)C(=O)[C@H](CC(=O)NCCc1ccccc1OC)C2	-11.2%	-13.6%
7	Cc1nn(-c2ccccc2)c(C)c1NC(=O)COC(=O)CCc1ccccc1	-1.5%	15.8%
8	Nc1nonc1-n1nnc(C(=O)N/N=C/c2cccc(Cl)c2)c1CN1CCCC1	-22.6%	-6.3%
9	CN1C(=O)[C@H]2[C@@H](c3ccc(C(F)(F)F)cc3)N[C@]3(CCCN(Cc4ccc(F)cc4)C3=O)[C@H]2C1=O	-1.2%	-14.1%
10	COc1cc(C=C2CN(C)C(=O)C2=O)ccc1O	-8.3%	-20.8%
11	Cc1cc(Br)cn2c(Cc3ccsc3)c(C(C)(C)C)nc12	0.0%	-21.2%
12	COc1ccc(C(OC(=O)c2ccco2)C(=O)NC(C)(C)C)cc1OC (stereo not drawn)	12.7%	2.2%
13	CC(=O)C[C@H]1SC[C@@H](C(C)C)N1S(=O)(=O)c1ccc(C)cc1	-4.3%	8.8%
14	Cc1cccc(NC(=O)c2cccc(S(=O)(=O)N(C)C3CCCCC3)c2)n1	-16.4%	11.9%
15	Cc1ccc(S(=O)(=O)N(C)C)cc1NC(=O)C(C)OC(=O)CC1CC2CCC1C2 (stereo not drawn)	-24.9%	-8.0%
16	CC(C)(C)OC(=O)N1CCC(C(=O)Nc2cccc(C(=O)NCCc3ccccc3)c2)CC1	-11.5%	5.3%
17	CCc1nc(NCC2CC2)c2nnn(Cc3ccccc3)c2n1	0.0%	-2.7%
18	Cc1ccc(NC(=O)C2(C)CCN2C(C)C)cc1C (stereo not drawn)	-17.0%	5.6%[18.4 µM]
19	OCCNc1ncnc2c1ncn2[C@H]1CN(Cc2cccs2)C[C@@H](CO)O1	-16.6%	-6.8%
20	COc1ccc(S(=O)(=O)N2CCC(C(=O)NN3CCCCC3)CC2)cc1	-7.0%	10.4%
21	CCc1nc2c(OCCOC)cccn2c1N(C)C(=O)c1ccco1	-15.3%	0.4%
22	CC(C)(C)NC(=O)C(c1ccc(-c2ccccc2)cc1)n1c(=O)c(-c2ccco2)nc2ccccc21 (stereo not drawn)	18.6%	0.0%
23	Cc1ccc(S(=O)(=O)NC(=O)C2(C)CCN2C(=O)CCc2ccc(Cl)cc2Cl)nc1 (stereo not drawn)	-22.7%	-2.6%
24	CC1=C(C(=O)N2CCOCC2)CC(CC(=O)NC(c2ccccc2)c2ccccc2)C(=O)N1Cc1ccc(C(C)(C)C)cc1 (stereo not drawn)	?	1.6%
25	Cc1noc(C)c1S(=O)(=O)N(C)C[C@H]1OCc2cnnn2CCCC(=O)N([C@H](C)CO)C[C@@H]1C	-24.4%	-6.2%
26	CCCc1cc(NCCOCCO)n2c(nc3ccccc32)c1C#N	-6.0%	8.3%
27	CC(=O)Nc1ccc(NC(=O)C2(C)Cc3c(-c4cccc(NC(C)=O)c4)ccnc3O2)cc1 (stereo not drawn)	12.5%	-5.5%
28	COc1ccc(NC(=O)N(C)C[C@H]2Oc3ccc(NS(=O)(=O)c4ccccc4)cc3C(=O)N([C@H](C)CO)C[C@@H]2C)cc1	-6.9%	-9.9%
29	CCCCNC(=O)c1nc(C2CCN(S(=O)(=O)c3c(F)cccc3F)CC2)oc1-c1ccccc1	-20.4%	-22.4%
30	OC(c1ccc(F)c(F)c1)c1nc(-c2ccc(Cl)cc2)cs1 (stereo not drawn)	-6.4%	-7.3%[18.4 µM]
31	COC(=O)[C@]12CCCCC=C1N(Cc1ccco1)C(=O)[C@H](CC(=O)N1CCOCC1)C2	-18.5%	-3.0%
32	CCOc1cc2c(C#N)c(N(CC)CC)nc(N)c2c(N)n1	13.4%	2.5%
33	CC[C@H](C)[C@@H](CO)NC(=O)[C@H]1O[C@@H](n2ccc(=O)[nH]c2=O)[C@H](O)[C@@H]1O	-9.8%	-1.4%
34	Cc1ccccc1C(=O)OCC(=O)N1CC(=O)Nc2ccccc21	-18.7%	0.3%
35	CN(C)C(CNC(=O)c1cccc(S(=O)(=O)N2CCN(c3ccccc3)CC2)c1)c1ccccc1 (stereo not drawn)	-23.8%	-9.5%
36	C[C@@H]1CN([C@@H](C)CO)C(=O)CCCn2cc(nn2)CO[C@H]1CN(C)C(=O)Oc1cccc2ccccc12	-18.7%	8.3%
37	CCCCNC(=O)C[C@@H]1C[C@@]2(C(=O)OCC)CCCC=C2N(Cc2ccc(Cl)cc2Cl)C1=O	4.6%	7.4%
38	COc1ccc(CN(C)C[C@@H]2OCCCC[C@H](C)Oc3ccc(NC(=O)Nc4ccc(F)cc4)cc3C(=O)N([C@H](C)CO)C[C@H]2C)cc1	?	7.9%
39	Cc1c[nH]c2ccccc12	-9.0%	1.0%[18.4 µM]
40	C[C@H](CO)N1C[C@H](C)[C@H](CN(C)S(=O)(=O)c2ccccc2)OCc2ccccc2-c2c(n(C)c3ccccc23)C1=O	-23.6%	-3.3%
41	CCOc1ccc(S(=O)(=O)N2CCCCC2)cc1NC(=O)Cc1cc(OC)c(OC)c(OC)c1	-24.1%	3.4%
42	CC(=O)N1CCN(c2cc(-c3ccccc3)nc3cc(-c4cccc(Cl)c4)nn23)CC1	17.8µM*	?
43	COc1ccc(-n2nnnc2C(CCSC)N2CCN(C/C=C/c3ccccc3)CC2)cc1 (stereo not drawn)	-4.0%	-17.0%
44	CCOc1ccc(Cl)cc1-c1cc(C(=O)NCCc2ccncc2)[nH]n1	-24.6%	-8.8%
45	CC1(C)CC(N2CCOCC2)=CC(=S)N1	-22.8%	-15.9%
46	Cc1csc(NC(=O)C(Cl)c2ccccc2)n1 (stereo not drawn) (tested in a mixture with another compound)	9.1%	-5.2%
47	C[C@H]1CN([C@@H](C)CO)C(=O)CCCn2cc(nn2)CO[C@@H]1CN(C)C(=O)Nc1cccc(F)c1	-8.7%	-11.0%
48	CC1(C(=O)Nc2ccc3c(c2)OCCO3)CCC(=O)N1C1CCN(Cc2ccccc2)CC1 (stereo not drawn)	-3.9%	-3.4%
49	CC1=C(C(=O)N(C)C)CC(CC(=O)NC2CC2)C(=O)N1CCC1=CCCCC1 (stereo not drawn)	-16.2%	7.4%
50	C=CCNc1ncnc2c1ncn2[C@H]1CN(CCN2CCOCC2)C[C@@H](CO)O1	-13.1%	-0.5%
51	COC(=O)C1=C(c2cc3ccccc3o2)C[C@@H]2CC[C@H]1N2C(=O)N1CCC(O)CC1	-25.2%	4.4%
52	CCCNC(=O)C1(CC2CC(c3ccccc3)=NO2)CCN(C(=O)OC(C)(C)C)CC1 (stereo not drawn)	-11.5%	-4.8%
53	Cn1c(=O)c2cc(NC(=O)NCCc3ccccc3)ccc2n1Cc1cccc(C(F)(F)F)c1	1.2%	9.1%
54	COC(=O)/C=C1\OCc2ccccc21	1.6%	-10.8%
55	CCC(Sc1nc2ccsc2c(=O)n1Cc1ccc(C(=O)O)cc1)C(=O)Nc1ccc(Cl)cc1 (stereo not drawn)	?	9.9%
56	CSc1ccccc1NC(=O)CN(C)C(=O)CNC(=O)c1ccc(Oc2ccccc2)cc1	-24.6%	7.5%
57	COc1ccc(S(=O)(=O)N2CCN(c3ncccn3)CC2)cc1	-5.3%	2.6%
58	CCCCN(C(=O)c1cccc(-n2cnnn2)c1)c1c(N)n(CCCC)c(=O)[nH]c1=O	3.3%	4.1%
59	COc1ccccc1C(NC(=O)C1CCN(CCOc2ccc(Cl)cc2Cl)CC1)c1ccccn1 (stereo not drawn)	-26.1%	-19.3%
60	Cc1ccc(F)c(S(=O)(=O)NC(=O)C2(C)CCN2C(=O)CC(c2ccccc2)c2ccccc2)c1 (stereo not drawn)	-22.9%	1.3%[18.4 µM]

(further entries)
no.	smiles	2A StopGo	RE007 growth inh
61	CCCCCCN1C[C@H](O)[C@@H](n2cc(COC(=O)c3ccccc3)nn2)C[C@@H]1c1ccccc1	-15.3%	-21.4%
62	O=C(Nc1ccccc1Cl)c1cc(C2CCCCN2S(=O)(=O)c2ccccc2)on1 (stereo not drawn)	-24.3%	10.5%
63	Cc1ccc(S(=O)(=O)N(C)C[C@H]2OCc3cn(nn3)CCCC(=O)N([C@H](C)CO)C[C@@H]2C)cc1	-14.0%	20.6%
64	COCc1cc(=O)n2[nH]c(C)c(-c3ccc(Cl)cc3)c2n1	?	-3.9%
65	CC(=O)c1ccc(Nc2nc(C(C)N)cs2)cc1 (stereo not drawn)	3.0%	1.1%[18.4 µM]
66	COc1cc(CCN=Cc2ccccc2O)c([N+](=O)[O-])cc1OC	-4.5%	-5.5%
67	CCCc1c(C(=O)N/N=C/c2ccc(OCc3ccc(F)cc3)cc2)nnn1-c1nonc1N	0.0%	-0.7%
68	C[C@@H]1CN([C@@H](C)CO)C(=O)CCCn2nncc2CO[C@H]1CN(C)C(=O)C1CCCCC1	0.0%	-2.4%
69	COc1cc(F)ccc1-c1csc(C(NC(C)=O)c2cccc(F)c2)n1 (stereo not drawn)	1.5%	-5.6%[18.4 µM]
70	COc1ccccc1-c1csc(C(NC(C)=O)c2cccc(F)c2)n1 (stereo not drawn)	-0.2%	22.8%
71	CN1CCOc2c1cnn(CCO)c2=O	-2.1%	12.4%
72	COC(=O)N(C)C[C@@H]1OCc2cnnn2CCCC(=O)N([C@H](C)CO)C[C@@H]1C	-15.0%	5.7%
73	O=C(O)Cn1nnc(-c2ccc(OCc3ccccc3)cc2)n1	13.2%	-3.5%
74	Cc1ccc(S(=O)c2ccc([N+](=O)[O-])c3nonc23)cc1 (stereo not drawn)	?	?
75	Cc1ccc(S(=O)(=O)NCCCCCCNS(=O)(=O)c2ccc(C)cc2)cc1	-19.0%	-20.2%
76	CC(=O)Nc1ccc(/C=N/NC(=O)CC2CCCCC2)cc1	-6.6%	20.9%
77	CC1(C(=O)NS(=O)(=O)c2cccc(Cl)c2)CCN1C(=O)c1cccc(F)c1 (stereo not drawn)	-12.0%	6.9%
78	CSc1ccc(CN2CCC(C)(Oc3ccc(-n4ccnc4)cc3)C2)cc1 (stereo not drawn)	?	-21.2%
79	C=CCn1nc(-c2ccccc2)cc1C(=O)OCC	-3.0%	2.1%
80	C[C@H](CO)N1C[C@H](C)[C@H](CN(C)C(=O)Nc2cccc3ccccc23)OCc2cnnn2CCCC1=O	-10.5%	19.5%
81	CCCNC(=O)c1cc(C2CCCN(C(=O)c3ccccc3)C2)on1 (stereo not drawn)	17.2%	2.8%
82	Cc1ccc(C2=CC(c3ccccc3)n3ncnc3N2)c(C)c1 (stereo not drawn)	-2.4%	0.4%
83	Cn1cc([C@]2(O)C(=O)N(c3ccccc3)c3ccccc32)c2ccccc21	-12.8%	?
84	O=C(Cc1cc(C(F)(F)F)cc(C(F)(F)F)c1)Nc1c(-c2ccccc2)[nH][nH]c1=O	-23.9%	10.2%
85	COc1ccc(NC(=O)C2Cc3c(-c4ccccc4Oc4ccccc4)ccnc3O2)cn1 (stereo not drawn)	-25.3%	11.3%
86	CCCCN(CCCNC(=O)c1ccc2c(c1)NC(=O)CN2C)c1ccccc1	22.4µM*	-17.1%
87	C[C@H](CO)N1C[C@H](C)[C@@H](CN(C)CC2CC2)Oc2c(NC(=O)C3CC3)cccc2C1=O	32.1%[activator]	2.8%
88	CN(C)S(=O)(=O)NCC1CCCN(Cc2cc3ccccc3s2)C1 (stereo not drawn)	-19.9%	-7.2%
89	COc1cc(/C=C/CNC[C@H]2O[C@@H](n3cnc4c(N)ncnc43)[C@H](O)[C@@H]2O)ccc1O	?	-6.2%
90	CC1(c2nnnn2Cc2ccccc2)CCC(=O)N1CCc1ccc(O)cc1 (stereo not drawn)	-6.1%	-12.4%
91	O=C(CCNS(=O)(=O)c1ccc(F)cc1)N1CCN(c2ncccn2)CC1	2.3%	3.4%
92	Cc1cc(C(=O)COc2ccc(Br)cc2F)c(C)n1CC1CCCO1 (stereo not drawn)	27.4%	-6.8%

Gathered by group, the entries above containing a furan ring, fused or not.
no.	smiles	2A StopGo	RE007 growth inh
12	COc1ccc(C(OC(=O)c2ccco2)C(=O)NC(C)(C)C)cc1OC (stereo not drawn)	12.7%	2.2%
21	CCc1nc2c(OCCOC)cccn2c1N(C)C(=O)c1ccco1	-15.3%	0.4%
22	CC(C)(C)NC(=O)C(c1ccc(-c2ccccc2)cc1)n1c(=O)c(-c2ccco2)nc2ccccc21 (stereo not drawn)	18.6%	0.0%
31	COC(=O)[C@]12CCCCC=C1N(Cc1ccco1)C(=O)[C@H](CC(=O)N1CCOCC1)C2	-18.5%	-3.0%
51	COC(=O)C1=C(c2cc3ccccc3o2)C[C@@H]2CC[C@H]1N2C(=O)N1CCC(O)CC1	-25.2%	4.4%
